Bioassay records as filed in PubChem.
RecA intein inh: blocks M. tuberculosis RecA intein splicing; P9WHJ3; cell-free RecA intein splicing, fluorescence; inhibition, %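 (about 9 µM by stock and volumes)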; 290,000 compounds, 0.75% hits; AID 2221; in the data active = inhibition above about 30%; inconclusive = no clear call, values can overlap the other calls;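 note: 0% = vehicle wells and 100% = reference inhibitor control wells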
Target sequence (P9WHJ3 whole entry, looked up): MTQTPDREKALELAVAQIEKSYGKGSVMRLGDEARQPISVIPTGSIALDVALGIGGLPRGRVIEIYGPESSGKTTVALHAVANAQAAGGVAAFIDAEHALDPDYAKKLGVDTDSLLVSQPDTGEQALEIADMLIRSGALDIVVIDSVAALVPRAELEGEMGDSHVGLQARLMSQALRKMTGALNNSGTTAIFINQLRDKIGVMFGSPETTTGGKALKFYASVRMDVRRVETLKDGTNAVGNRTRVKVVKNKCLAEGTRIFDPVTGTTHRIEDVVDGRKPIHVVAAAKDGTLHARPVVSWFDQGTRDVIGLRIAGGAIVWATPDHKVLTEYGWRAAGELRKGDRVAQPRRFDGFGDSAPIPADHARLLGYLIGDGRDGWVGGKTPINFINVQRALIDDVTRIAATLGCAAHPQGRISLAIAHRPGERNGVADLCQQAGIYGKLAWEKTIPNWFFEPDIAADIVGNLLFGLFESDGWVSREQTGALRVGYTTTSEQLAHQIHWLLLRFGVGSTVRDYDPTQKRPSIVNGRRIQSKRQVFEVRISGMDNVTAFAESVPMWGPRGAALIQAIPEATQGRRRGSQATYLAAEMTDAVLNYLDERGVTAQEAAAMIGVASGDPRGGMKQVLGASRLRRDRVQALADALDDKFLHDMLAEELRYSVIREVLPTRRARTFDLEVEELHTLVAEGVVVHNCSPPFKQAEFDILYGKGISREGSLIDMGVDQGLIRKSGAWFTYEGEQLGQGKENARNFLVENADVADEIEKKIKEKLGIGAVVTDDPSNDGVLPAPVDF
Mtb bLac sens: beta-lactam sensitization of Mtb H37Rv; M. tuberculosis H37Rv growth with meropenem, percent inhibition; hits of this screen are not shown here; inhibition, % at 25 µM; 330,000 compounds, 0.27% hits;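 active = about 74% or more and at least 40 points above the plate without the antibiotic, then above 30% in a dose series; inconclusive = first-round hits that could not be retested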;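 note: growth measured after seven days incubation then overnight dye step; 0% = bacteria only wells and 100% = bacteria with antibiotic; twin plates without the antibiotic show which effects depend on it; some results filed as inactive read as strong as hits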
Mtb growth: M. tuberculosis H37Rv growth inhibitors, H37Rv strain (AID 1626). 220,000 compounds, 0.95% hits. M. tuberculosis H37Rv growth inhibition; higher % means a stronger effect. inhibition, % at 10 µM, or IC50 in µM where a hit was titrated;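 active = confirmed in a dose series; inconclusive = inhibition above 80% but not taken into the dose series; inactive = below 80% or under 30% at every dose of the series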;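 note: bacteria incubated seven days before Alamar blue readout; 0% = bacteria only wells and 100% = bacteria with antibiotic wells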
YopH PTP inh: inhibitors of Yersinia enterocolitica YopH tyrosine phosphatase. 140,000 compounds, 0.16% hits. inhibition, %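 (about 10 µM by stock and volumes)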. fluorescence Ex485/Em525. AID 898;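 active = inhibition of 50% or more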;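 note: controls were vehicle for no effect and minimum signal wells for full effect; inactives centre near -20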
Arbovirus inh: antivirals against arbovirus infection | arbovirus infection cell-based antiviral screen | inhibition, % at 10 µM | 200,000 compounds, 0.37% hits;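 active = inhibition from about 30%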;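 note: bluetongue infection of BSR cells; cell survival read as ATP light after 72 h; 0% = infected wells without compound and 100% = uninfected wells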
Arbovirus inh repeat: also measured in Arbovirus inh; calls as there; inhibition, %; measured here: 10K subset replicate screen; many hits read low in the repeat;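 first of two repeat runs on a subset; 0% = infected and 100% = uninfected wells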
* marks the source's active call; other numbers are inactive results; ? = inconclusive; · = not tested or not shown. A portion of the library; rates above refer to the full screens.

Sample of the layout:
SMILES | RecA intein inh | Mtb bLac sens | Mtb growth | YopH PTP inh | Arbovirus inh | others
Cc1cc(C(F)F)n2nc(C(=O)Nc3ccccc3F)nc2n1 | 1.1 | -1 | -10% | 0 | 6
O=C1C2C3C=CC(C2C(=O)N1c1cccc(O)c1)C1C2C(=O)N(c4cccc(O)c4)C(=O)C2C31 (stereo not drawn) | -4.4 | 0 | -8% | · | 4
CCOc1ccc(/C=C2\SC(=S)N(C(C(=O)O)c3ccccc3)C2=O)cc1OC (stereo not drawn) | 8.7 | -8 | -8% | · | ·

Results, previewed entries included:
SMILES | RecA intein inh | Mtb bLac sens | Mtb growth | YopH PTP inh | Arbovirus inh | others
Cc1cc(C(F)F)n2nc(C(=O)Nc3ccccc3F)nc2n1 | 1.1 | -1 | -10% | 0 | 6
O=C1C2C3C=CC(C2C(=O)N1c1cccc(O)c1)C1C2C(=O)N(c4cccc(O)c4)C(=O)C2C31 (stereo not drawn) | -4.4 | 0 | -8% | · | 4
CCOc1ccc(/C=C2\SC(=S)N(C(C(=O)O)c3ccccc3)C2=O)cc1OC (stereo not drawn) | 8.7 | -8 | -8% | · | ·
O=[N+]([O-])c1ccc(N2CCCCC2)nc1 | 8.1 | -1 | · | · | ·
Cc1ccc2[nH]cc(C(=O)CN3CCC4(CC3)OCCO4)c2c1 | -7.9 | -6 | 6% | -63 | -3
O=C(NC1CCCC1)C(c1ccccn1)N(C(=O)c1csnn1)c1ccccc1F (stereo not drawn) | 0.7 | -3 | · | · | ·
COC(=O)CN=Cc1c(O)n(-c2ccc(Cl)cn2)c(=O)c2ccccc12 | -2.0 | -8 | 4% | · | -2
CC(C)c1ccc(OCC(=O)N(c2ccccn2)C2CCCCC2)cc1 | 2.7 | 4 | 5% | -9 | 3
CC(C)(C)NC(=O)CSc1nc(-c2ccc(F)cc2)cs1 | 3.3 | -2 | 6% | · | -1
CC(=O)Nc1ccc(/C(C)=N\NC(=O)c2ccc(-c3ccccc3)cc2)cc1 | 1.6 | -5 | -2% | · | -16
CN(C)CCCNC1=CC(=O)OC12CCCCC2 | -1.7 | -8 | 2% | 6 | -5
Cc1cc(NC(=O)c2cccc(N3C(=O)CCC3=O)c2)no1 | 13 | 8 | 2% | -42 | 0
Clc1ccc(-c2cn3cccnc3n2)cc1Cl | 0.9 | -4 | 5% | -12 | 0
CN(C)c1nc(N)nc(/C(C#N)=C/C2CC3C=CC2C3)n1 (stereo not drawn) | 1.0 | -5 | 2% | -36 | -1
COc1cc(CNc2nc(C)c([N+](=O)[O-])c(C)c2C#N)cc(OC)c1 | 0.2 | -2 | -4% | -10 | -6
Cc1nn(-c2nc3ccccc3[nH]2)c(N)c1-c1ccc(Cl)cc1 | 0.0 | 100 | ? | 0 | -28
CCOC(=O)N1CCN(c2cc(C)nc3nc(C)nn23)CC1 | -1.0 | 0 | -3% | 10 | 7 | Arbovirus inh repeat=3
CC(SC(=S)N1CCCC1)C(=O)O (stereo not drawn) | -6.3 | -2 | -10% | · | 7
O=C1CCCc2c1cc(C(=O)O)c(=O)n2-c1ccccc1 | 0.1 | -3 | 3% | · | 1
CC(C)N(C)CCOC(=O)c1ccc2c(c1)OCCO2 | -1.5 | -8 | -10% | -14 | 4
CCOC(=O)N1CCN(S(=O)(=O)N2CCCC(C(=O)NCCCN3CCCCC3)C2)CC1 (stereo not drawn) | -1.5 | 4 | · | · | ·
COc1ccc(C(=O)Nc2cc(OC)nc(OC)n2)cc1 | 1.9 | -4 | 7% | 7 | 7
CC(=C/c1ccccc1)/C=N/Nc1nc(N2CCCCC2)nc(N2CCCCC2)n1 | 0.9 | ? | 67% | -15 | -22
COc1ccc(C(=O)c2ccc(OC)c(N)c2)cc1N | -0.5 | 6 | -2% | -2 | -7 | Arbovirus inh repeat=-12
Cn1c(CSc2nc3ccccc3s2)nnc1SCC(=O)NCc1ccccn1 | -2.1 | -9 | 1% | -10 | 2
CCC1CCCCN1S(=O)(=O)c1ccc(NC(=O)c2nc(S(C)(=O)=O)ncc2Cl)cc1 (stereo not drawn) | 97* | -2 | · | · | ·
O=C(COc1ccc(Br)cc1Cl)NC(=S)Nc1ccccn1 | 2.5 | -1 | · | · | ·
CCOC(=O)c1cccc(NC(=O)CSc2nnc(C)n2Cc2ccccc2)c1 | 0.6 | -2 | -9% | -34 | 6
COc1ccc(Cc2nc3ccc(C(=O)NC(C)C)cc3o2)cc1 | -3.7 | -2 | · | · | ·
COc1ccc(-c2csc(/C(C#N)=C\c3ccc(OC)c([N+](=O)[O-])c3)n2)cc1 | -3.1 | 18 | 6% | -29 | -6
Cc1ccc(-c2nc3c(c(=O)[nH]c(=O)n3CC(C)C)n2CC(C)C)cc1[N+](=O)[O-] | 4.6 | -5 | 7% | · | -12
Cn1c(=O)n(C)c2cc(S(=O)(=O)N3CCCCC3)ccc21 | -1.0 | -2 | · | · | ·
CC(C)(C)NC(=O)NC(=O)COC(=O)CNS(=O)(=O)/C=C/c1ccccc1 | 1.8 | -1 | -2% | · | -1
CCCCCCOc1ccc(N2C(=O)CC(S/C(N)=N/N=C(\C)c3cccs3)C2=O)cc1 (stereo not drawn) | -3.8 | 7 | 4% | -29 | 2
Cc1cnc(C(=O)Nc2cc(F)ccc2C)cn1 | -0.9 | -4 | -1% | · | -3
CN(c1ccc(OCC(=O)N2CCN(c3ccc(F)cc3)CC2)cc1)S(=O)(=O)c1cccs1 | 2.4 | 2 | 4% | · | 7
CC1(C)C2CC=C(/C=N/NC(=O)C(N)=O)C1C2 (stereo not drawn) | -2.7 | -5 | -6% | · | ·
Cc1cccc(-c2nnc(SCC(=O)C(C)(C)C)n2C)c1 | -2.9 | 20 | -3% | · | ·
Cc1ccc(Nc2nc3nonc3[nH]c2=O)cc1C | -1.1 | 28 | -4% | -26 | 24
FC(F)(F)c1cccc(-c2nc(COc3ccc(Cl)cc3Cl)no2)c1 | -2.5 | 4 | 3% | · | ·
Nc1cc(N)nc(SCc2cccc(F)c2)n1 | -3.5 | -4 | · | · | ·
CCOc1ccc(NS(=O)(=O)c2cc3c(cc2C)N(C)CCO3)cc1 | 1.9 | 0 | · | · | ·
CCc1nc(C)c(C#N)c2cc(OC)c(OC)cc12 | -0.7 | 3 | -5% | -19 | -7
O=C(CNc1n[nH]c(=O)[nH]c1=O)N/N=C/c1ccccc1 | 6.3 | -2 | -5% | · | ·
CCOc1ccc(-c2nnn(CC(=O)c3cc(OC)ccc3OC)n2)cc1 | 0.4 | 3 | -25% | 10 | -14
COc1cc(C(=O)NCc2nnc(SCC(=O)c3ccccc3)o2)cc(OC)c1OC | -10 | 5 | · | · | ·
Cc1ccc(C(=O)Nc2ccncc2)c(Cl)c1 | -1.9 | 2 | · | · | ·
[O-]/[N+](=C\c1ccco1)c1ccc(Cl)cc1 | -4.1 | 39 | · | · | ·
CC1=C(C(=O)OC2CCC(C)CC2)C(c2ccc(O)c([N+](=O)[O-])c2)NC(=O)N1 (stereo not drawn) | 3.1 | 9 | · | · | ·
O=C(c1ccoc1)N1CCC2(CC1)Oc1ccc(F)cc1C(=O)C21CC(c2cccnc2)=NO1 (stereo not drawn) | 0.2 | -10 | 1% | · | ·
CCc1ccc(S(=O)(=O)N2CCN(Cc3ccco3)CC2)cc1 | 1.5 | ? | · | · | ·
COc1cc(-c2cc3nc(C)c(C)c(=O)n3[nH]2)cc(OC)c1OC | -2.1 | -5 | 0% | -1 | 4
Cc1cc(=O)[nH]c2nnc(-c3ccc(Cl)cc3)n12 | -1.9 | 12 | · | · | ·
Cc1ccc(NC2=CC(=O)CC(c3ccco3)C2)c(N)c1 (stereo not drawn) | · | -2 | 3% | -19 | -4 | Arbovirus inh repeat=-7
N#CCCNC(=O)CCN1CCOCC1 | · | 1 | 0% | -19 | 11
CCc1nnc(NC(=O)CCC(=O)N2CCN(CCc3ccccc3)CC2)s1 | -1.0 | -8 | -1% | · | 1
O=C(CSc1nc(-c2ccco2)cc(C(F)(F)F)n1)NCCN1CCOCC1 | -1.7 | -1 | · | · | 9
CC(=O)N1c2ccc(S(=O)(=O)N3CCCC3)cc2CC1C(=O)NCc1ccccc1F (stereo not drawn) | 0.5 | 6 | · | · | ·
Cc1ccc(-n2c(-c3ccc(Br)cc3)c[n+]3c2CCc2ccc4cccnc4c2-3)cc1 | 21 | 99 | 0.76µM* | -9 | -36
COc1ccc(OC)c(NC(=O)C(C)N2c3cccc4cccc(c34)S2(=O)=O)c1 (stereo not drawn) | -4.7 | 4 | · | · | ·
Continued:
SMILES | RecA intein inh | Mtb bLac sens | Mtb growth | YopH PTP inh | Arbovirus inh | others
COCc1[nH]nc2c1C(c1ccc(F)cc1F)C(C#N)=C(N)O2 (stereo not drawn) | 25 | 2 | -3% | · | -4
Cc1nnsc1-c1c(C(=O)N2CCOCC2)c(C)nn1-c1ccccc1 | 1.1 | -6 | -2% | · | ·
Nc1nonc1-c1nc2ccccc2n1CC(=O)Nc1ccccc1 | -0.4 | -8 | -3% | · | ·
O=[N+]([O-])c1ccc(/C([O-])=C(/C(=S)NCc2ccco2)[n+]2ccccc2)cc1 | 5.0 | 4 | -7% | · | 20
O=C(Oc1ccc(/C=N/O)cc1)c1ccccc1Cl | 6.6 | 96 | 28µM* | · | -6
COC(=O)CCCC1=CC2=CC(=O)C(C)(OC(=O)c3ccc(Cl)nc3)C(=O)C2=CO1 (stereo not drawn) | -5.6 | -2 | -3% | · | ·
Cc1cccc(NC(=S)N(CCN2CCOCC2)Cc2ccccc2F)c1 | -2.8 | 3 | -13% | · | 23
COC(=O)c1ccc(CSc2nnc(N)s2)cc1 | -2.7 | -6 | -5% | -25 | 0
CCOC(=O)C(NC(=O)CC)(Nc1ccccc1OC)C(F)(F)F (stereo not drawn) | 2.5 | 0 | -3% | -22 | 11
COC(=O)c1cccc(COC(=O)c2cc3ccccc3oc2=O)c1 | -1.1 | -1 | · | · | ·
Cc1ccc(-c2csc(-c3ccncc3)n2)cc1 | 2.5 | 69 | -7% | · | 2
Cc1ccc(-c2nnc(C)c(N3CCCC3)n2)cc1 | 1.1 | 15 | ? | · | 5
CS(=O)(=O)c1ccc2nnn(OCC(=O)Nc3ccc(Br)cc3Br)c2c1 | -1.6 | -14 | -4% | · | 1
COc1ccc(/C=N/NC(=S)Nc2ccccc2)cc1COc1ccccc1F | 1.4 | -1 | 7% | -36 | -7
COc1ccc(/C=N/NC(=O)c2ccccc2F)cc1CN1CCN(c2ccc(F)cc2)CC1 | · | -5 | 2% | -3 | 6
O=C(NCCCc1ccccc1)C(=O)NCC1OCCN1S(=O)(=O)c1ccccc1 (stereo not drawn) | 2.7 | 1 | · | · | ·
O=C(Cc1ccccc1)Nc1ccc2oc(=O)ccc2c1 | -2.7 | -9 | -3% | · | 0
CCOC(=O)CSc1nnc(-c2cccc(Cl)c2)n1CC | 1.3 | -1 | -1% | -11 | 1
COC(=O)c1ccc(N2CCN(C)CC2)c(NC(=O)COc2ccccc2Cl)c1 | 0.3 | 0 | · | · | ·
CCN(C1CCCCC1)S(=O)(=O)c1ccc(C(=O)O)cc1 | 1.9 | ? | -12% | 17 | 2
Cc1cccc(-c2nsc(SCC(=O)NCc3ccc4c(c3)OCO4)n2)c1 | -1.8 | 92 | 7.6µM* | -18 | 7
Cn1c(N)c(C(=O)COC(=O)c2cc(C(F)(F)F)nc3ccccc23)c(=O)n(Cc2ccccc2)c1=O | · | 87 | 3% | -14 | 4
O=C(Cc1sc(Nc2ccccc2)nc1-c1ccccc1)NCc1ccccn1 | 1.4 | 11 | 7% | · | 2
O=C(CN1CCOCC1)Nc1ccc(Oc2ccccc2)cc1 | 1.5 | 2 | -2% | -79 | -2
CCOc1ccc(C(=O)CCC(=O)NCC(=O)OCc2ccccc2)cc1OCC | -0.4 | 2 | · | · | ·
O=C(CSc1nc2ccccc2s1)N/N=C/c1cc([N+](=O)[O-])ccc1O | -2.3 | 2 | 2% | · | ·
COc1cc([N+](=O)[O-])ccc1NC(=S)NC(=O)CC(C)(C)C | 5.9 | 16 | 1% | · | -8
CN(C)S(=O)(=O)c1cccc(NC(=O)COC(=O)c2cc(=O)[nH]c(=O)[nH]2)c1 | 1.5 | 0 | 8% | · | 3

Looked up by structure from above (3):
SMILES | RecA intein inh | Mtb bLac sens | Mtb growth | YopH PTP inh | Arbovirus inh | others
O=C(Cc1sc(Nc2ccccc2)nc1-c1ccccc1)NCc1ccccn1 | 1.4 | 11 | 7% | · | 2
COc1cc([N+](=O)[O-])ccc1NC(=S)NC(=O)CC(C)(C)C | 5.9 | 16 | 1% | · | -8
Cn1c(N)c(C(=O)COC(=O)c2cc(C(F)(F)F)nc3ccccc23)c(=O)n(Cc2ccccc2)c1=O | · | 87 | 3% | -14 | 4
